HSV replic up: HSV replication enhancement; HSV replication augmentation in cells, fold increase; maximum fold increase; AID 1956; 220,000 tested, 0.005% active;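 active = peak rise of 1.5-fold or more in the series; tested in PC3 cells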;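 note: first round at 10 µM; read as green reporter fluorescence; hits show the peak of a series up to 25 µM; 1 = signal of infected wells without compound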
PKD1 inh: blocks activity of human protein kinase D1; Q15139; PKD1 kinase fluorescence polarization assay; inhibition, %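 (about 10 µM by stock and volumes)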; 200,000 tested, 0.056% active; AID 797;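 active = inhibition of 50% or more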;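 note: controls were vehicle for no effect and a reference inhibitor for full effect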
Insulin prom inh: TRM-6 insulin promoter activity inhibition; TRM-6 cells (human fetal islet line), insulin promoter-eGFP reporter, imaging; reporter expression induced with tamoxifen; inhibition, % at 2 µM; 130,000 tested, 0.9% active;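 active = inhibition above the mean plus 3 SD, with well images judged a real hit on visual review, cut at about 60% in these data, passing the limit was not always enough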
GALR2 agonist: agonists of human galanin receptor 2 (GALR2); O43603; GALR2-expressing cells, agonist activation read-out; activation, %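 (tested at 5 µM)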; 140,000 tested, 0.48% active;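 active = above mean plus 3 SD of all compounds, about 5% in these data, not always enough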;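 note: 0% = vehicle buffer wells and 100% = reference agonist at full effect; tested in CHO reporter cells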
Target sequence (O43603 whole entry, looked up): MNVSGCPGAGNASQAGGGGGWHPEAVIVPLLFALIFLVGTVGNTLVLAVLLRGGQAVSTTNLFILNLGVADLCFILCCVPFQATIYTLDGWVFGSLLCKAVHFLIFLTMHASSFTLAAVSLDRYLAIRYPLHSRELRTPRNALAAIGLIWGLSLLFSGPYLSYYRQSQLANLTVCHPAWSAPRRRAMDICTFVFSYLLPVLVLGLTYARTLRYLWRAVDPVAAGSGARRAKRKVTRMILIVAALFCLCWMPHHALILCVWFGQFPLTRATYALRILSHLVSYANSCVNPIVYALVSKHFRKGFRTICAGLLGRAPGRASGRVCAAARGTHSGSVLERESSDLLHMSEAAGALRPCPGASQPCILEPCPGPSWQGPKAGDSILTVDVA
RGS16-Gao: RGS16-Galphao interaction regulator (human); binding response (% of control), % at 10 µM; O15492+P09471; 220,000 tested, 0.38% active; bead-based flow cytometry RGS16-Galphao binding, fluorescence; actives lie on both sides;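 active = below 25% or above 175%, edge rows of some plates excepted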;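 note: Galphao activated by GDP with aluminum fluoride before binding; 100% = wells without compound and 0% = beads without RGS; some results beyond the cut were filed as inactive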
Target sequence (O15492 whole entry, looked up): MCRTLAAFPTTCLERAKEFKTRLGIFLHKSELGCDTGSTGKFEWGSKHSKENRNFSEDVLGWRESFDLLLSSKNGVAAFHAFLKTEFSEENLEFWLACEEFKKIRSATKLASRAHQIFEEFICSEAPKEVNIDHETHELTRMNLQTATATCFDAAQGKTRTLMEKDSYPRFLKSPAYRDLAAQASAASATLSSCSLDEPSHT
Target sequence (P09471 whole entry, looked up): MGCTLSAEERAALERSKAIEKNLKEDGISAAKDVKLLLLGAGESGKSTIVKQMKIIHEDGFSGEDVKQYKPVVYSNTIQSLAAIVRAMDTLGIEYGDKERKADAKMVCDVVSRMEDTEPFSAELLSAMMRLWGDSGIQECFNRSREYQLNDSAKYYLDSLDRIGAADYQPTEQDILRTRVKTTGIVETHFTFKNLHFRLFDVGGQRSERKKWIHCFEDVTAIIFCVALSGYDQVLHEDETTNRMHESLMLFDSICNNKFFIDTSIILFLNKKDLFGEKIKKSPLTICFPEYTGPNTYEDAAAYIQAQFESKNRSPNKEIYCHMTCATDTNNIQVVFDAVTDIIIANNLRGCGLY
Insulin prom inh cell count: further read-out of Insulin prom inh, marked with its call; normalized cell count, %; measured here: cell count, toxicity; reference of the scale not given here;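 cells exposed to compound for 48 h; stained nuclei by imaging scaled within each plate; lower means fewer cells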
HSV replic up primary fold: also measured in HSV replic up; calls as there; fold increase; compound at 10 µM; measured here: primary screen fold increase 10 uM; tested in PC3 cells;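 GFP signal in the first replicate; 1 = infected wells without compound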
* hit, by the source's call; i = inactive; . = no result given; & = joins results of further samples.

SMILES	HSV replic up	HSV replic up primary fold	PKD1 inh	Insulin prom inh	Insulin prom inh cell count	GALR2 agonist	RGS16-Gao
Cc1cc2oc(=O)cc(Cn3ncc(Cl)c(Cl)c3=O)c2cc1Cl	i	0.66	8	.	.	.	113
O=C(Nc1ccc(F)cc1)C1C2CCC3C(CCC21)C3(Cl)Cl (stereo not drawn)	i	0.87	.	.	.	.	87
CC(=O)N1N=C(c2ccc(Cl)cc2)CC1c1ccco1 (stereo not drawn)	i	0.83	.	.	.	.	107
Cc1ccc(-c2nc3cnccn3c2Nc2ccc3c(c2)OCO3)o1	i	0.96	16	.	.	-1.0	107
Cc1ccc(S(=O)(=O)Oc2ccc(/C=C3/N=C(c4ccccc4)OC3=O)cc2)cc1	i	0.92	-4	25	92	-0.8	107
Cc1ccc(C(C)C)c(OCC(O)CN2CCOCC2)c1 (stereo not drawn)	i	0.9	0	-17	69	0.6	100
CCOC(=O)C1(CC2CC2)CCN(S(=O)(=O)/C=C/c2ccccc2)CC1	i	0.99	3	.	.	.	58
Cc1nn2c(N3CCN(C)CC3)cc(C(C)(C)C)nc2c1-c1ccccc1	i	0.73	.	.	.	.	106
COc1ccc(C2C(=O)N(C3CCCCC3)CC(=O)N2Cc2ccco2)cc1 (stereo not drawn)	i	1.2	-11	-128	72	-2.0	101
O=C(N/C(=C/C=C/c1ccccc1)C(=O)N1CCOCC1)c1ccccc1Cl	i	0.92	3	0	100	.	106
CCC(CC)=NNC(=O)c1ccccc1OCc1ccc(F)cc1	i	1.2	8	.	.	0.4	104
O=C(c1ccco1)N1CCN(C(=O)C2CCCN(S(=O)(=O)c3cccc4nsnc34)C2)CC1 (stereo not drawn)	i	0.67	-4	-29	54	0.4	103
COc1ccc(C/C(N)=N/OC(=O)c2cccs2)cc1	i	0.92	-1	.	.	.	96
Cc1cc(C)n(S(=O)(=O)c2cc(C(=O)O)c(Cl)cc2Cl)n1	i	0.91	-11	38	128	-1.0	.
CCOC(=O)c1ccc(N2C(=O)C(CC(=O)NC)N(CCc3ccc(OC)c(OC)c3)C2=S)cc1 (stereo not drawn)	i	0.89	0	.	.	.	103
COc1ccc(C(=O)N2C(=O)c3ccc(N)cc3C2=O)cc1	i	0.61	-5	.	.	.	111
CCc1ccc(NC(=O)CSc2nc(NS(=O)(=O)c3ccccc3)cc(=O)[nH]2)cc1	i	0.96	-8	.	.	.	92
O=C(Nc1ccc(C(F)(F)F)cc1Cl)c1ccc(Cn2cc(Br)cn2)o1	i	1.1	-2	45	107	-2.2	116
CC(C)NC(=O)c1cc(-c2ccc(Br)cc2)on1	i	0.94	-2	0	96	-1.5	109
Cc1ccc(Nc2cc(-n3nc(C)cc3C)ncn2)c(C)c1	i	0.99	-1	-114	60	-2.4	101
CC(NC(=O)c1ccccc1)C(=O)N/N=C/c1ccccc1 (stereo not drawn)	i	1	1	.	.	.	104
COc1ccccc1N1CCN(C(=O)C(F)F)CC1	i	0.7	-8	.	.	-0.9	99
CCCC(=O)NC(=S)Nc1ccc(S(=O)(=O)Nc2ccc(OCC)cc2)cc1	i	0.99	1	.	.	2.0	97
O=c1cc(O)c2sc(Nc3ccc(Cl)c(F)c3)nc2[nH]1	i	0.95	.	.	.	.	103
O=C(NCc1cccs1)C1CCN(S(=O)(=O)c2cccs2)CC1	i	0.94	-3	-59	61	-0.3	123

Among those listed so far, these have nitrogen in an aromatic ring.
SMILES	HSV replic up	HSV replic up primary fold	PKD1 inh	Insulin prom inh	Insulin prom inh cell count	GALR2 agonist	RGS16-Gao
Cc1cc2oc(=O)cc(Cn3ncc(Cl)c(Cl)c3=O)c2cc1Cl	i	0.66	8	.	.	.	113
Cc1ccc(-c2nc3cnccn3c2Nc2ccc3c(c2)OCO3)o1	i	0.96	16	.	.	-1.0	107
Cc1nn2c(N3CCN(C)CC3)cc(C(C)(C)C)nc2c1-c1ccccc1	i	0.73	.	.	.	.	106
O=C(c1ccco1)N1CCN(C(=O)C2CCCN(S(=O)(=O)c3cccc4nsnc34)C2)CC1 (stereo not drawn)	i	0.67	-4	-29	54	0.4	103
Cc1cc(C)n(S(=O)(=O)c2cc(C(=O)O)c(Cl)cc2Cl)n1	i	0.91	-11	38	128	-1.0	.
CCc1ccc(NC(=O)CSc2nc(NS(=O)(=O)c3ccccc3)cc(=O)[nH]2)cc1	i	0.96	-8	.	.	.	92
O=C(Nc1ccc(C(F)(F)F)cc1Cl)c1ccc(Cn2cc(Br)cn2)o1	i	1.1	-2	45	107	-2.2	116
CC(C)NC(=O)c1cc(-c2ccc(Br)cc2)on1	i	0.94	-2	0	96	-1.5	109
Cc1ccc(Nc2cc(-n3nc(C)cc3C)ncn2)c(C)c1	i	0.99	-1	-114	60	-2.4	101
O=c1cc(O)c2sc(Nc3ccc(Cl)c(F)c3)nc2[nH]1	i	0.95	.	.	.	.	103

Further entries.
SMILES	HSV replic up	HSV replic up primary fold	PKD1 inh	Insulin prom inh	Insulin prom inh cell count	GALR2 agonist	RGS16-Gao
O=C(Nc1cccc(S(=O)(=O)N2CCCCC2)c1)c1ccccc1NS(=O)(=O)c1ccc(F)cc1	i	0.84	-2	.	.	-1.9	100
CC(=O)C(C)Oc1cc(C)cc2oc(=O)c(C)c(C)c12 (stereo not drawn)	i	1.1	-6	.	.	-2.3	92
COc1ccccc1CCNC(=O)Cc1cccs1	i	0.98	.	.	.	.	102
COCCNC(=S)N1CCN(c2cccc(C(F)(F)F)c2)CC1	i	0.86	3	18	115	.	105
N#Cc1ccsc1NC(=O)CSc1ncn[nH]1	i	0.91	0	62	86	-2.3	114
COc1c(F)c(F)c(C(=O)Nc2ccc(N3CCN(Cc4ccccc4)CC3)cc2)c(F)c1F	i	0.86	-1	-32	84	-3.1	449
Cc1noc(C)c1C(=O)N(CC(=O)NC1CCCC1)Cc1ccccc1F	i	1.3	-8	3	70	-1.6	100
C/C(=N\NC(=S)NCCc1ccccc1)c1ccc(Cl)cc1	i	0.97	-5	-4	64	-0.7	108
CCOc1ccc(NC2OCC(O)C(O)C2O)c([N+](=O)[O-])c1 (stereo not drawn)	i	1.5	1	.	.	.	105
COc1ccc(NC(=O)CCNS(=O)(=O)c2cccc3nsnc23)cc1OC	i	0.99	8	22	87	-1.7	103
Cc1cc(C)cc(OC(C)c2ccnc3nc(/N=C/N(C)C)nn23)c1 (stereo not drawn)	i	0.94	-3	.	.	0.1	105
CCOc1cc(N2CCOCC2)c(OCC)cc1NC(=O)COC(=O)[C@@H]1CCCN1S(=O)(=O)c1ccccc1F	i	0.86	4	-29	128	.	101
C#CC(C)(CC)NC(=O)Cn1nnc(-c2ccc(S(C)(=O)=O)cc2)n1 (stereo not drawn)	i	0.88	-9	.	.	-0.5	104
Cc1nn(C)c(C(=O)Nc2ccn(Cc3ccccc3F)n2)c1[N+](=O)[O-]	i	0.84	-2	20	91	-1.6	103
Cc1cccc(C)c1OCC(O)CN1CCC(CN2C(=O)c3cccc4cccc(c34)C2=O)CC1 (stereo not drawn)	i	0.89	-1	40	136	-0.5	88
CNc1ccccc1-c1nc2ccccc2n(C)c1=O	i	0.8	-6	-38	52	-1.4	99
CCN1C(=O)/C(=C2\C=Cc3ccccc3N2CC)SC1=S	i	0.91	14	-3	164	-2.9	104
Cc1cc(C)nc(NC(=O)/C=C/c2ccc(Cl)cc2Cl)c1	.	.	-3	.	.	-0.2	90
O=S(=O)(NCC(c1ccco1)N1CCOCC1)c1ccc(Cl)cc1 (stereo not drawn)	i	1	-8	-19	154	-1.0	106
CCCCOc1ccc(/C=C2/Sc3ccccc3C2=O)cc1	i	1.1	1	-18	113	-0.7	95
CN1/C(=C\C(=O)CSc2nncn2C)C(C)(C)c2ccccc21	i	1.1	-19	.	.	-2.1	111
Cc1ccc(-c2ccc(CO)o2)cc1N	i	0.97	-9	-4	103	.	100
O=C1CN(C(=S)Nc2ccccc2Cl)CCN1	i	0.88	-3	17	121	.	103
COc1cc2c(C(=O)O)c(C)n(-c3ccccc3)c2c2ccccc12	i	1.1	.	.	.	.	102
CSc1ccc(/C=C/C(=O)Nc2ccccc2)cc1	i	0.74	1	50	108	.	103

Next section
SMILES	HSV replic up	HSV replic up primary fold	PKD1 inh	Insulin prom inh	Insulin prom inh cell count	GALR2 agonist	RGS16-Gao
O=C(C1CCCN1S(=O)(=O)c1cccc2nsnc12)N1CCCCC1 (stereo not drawn)	i	1	.	.	.	.	97
CC(C)(C)c1ccccc1NC(=O)c1cccnc1	i	0.83	2	0	150	-1.2	95
C=CCn1c(SC(C)C(N)=O)nc2sc(CC)cc2c1=O (stereo not drawn)	i	0.98	4	-42	42	.	88
C=CCc1ccccc1OCC(O)CNC(C)C (stereo not drawn)	i	0.99	-7	5	87	-1.1	99
Cc1ccccc1OCCSc1nnc(-c2ccncc2)n1C	i	0.87	-2	38	133	-1.6	103
Cc1cc(S(=O)(=O)N2CCN=C2c2ccccc2)c(Cl)cc1Cl	i	1	3	23	151	-0.7	82
S=C(NCCN1CCOCC1)N/N=C/c1ccccc1	i	1	-9	5	77	-2.6	99
O=C(COc1ncnc2ccccc12)Nc1ccc(Cl)c([N+](=O)[O-])c1	i	0.96	4	32	95	0.5	102
Cc1cc(NC(=O)Nc2cc(C)nn2-c2ccccc2)n(-c2ccccc2)n1	i	1	2	.	.	1.0	105
C=C(C)c1cccc(C(C)(C)NC(=O)N2CCCC(C)C2)c1 (stereo not drawn)	i	0.84	-2	40	96	-1.5	95
CC1=NN(c2ccc(Cl)cc2)C(=O)/C1=C\c1cccn1-c1ccc(S(N)(=O)=O)cc1	i	0.83	11	33	142	-2.0	103
Cc1cccc(OCc2nnc(SCC(=O)Nc3cccc(C(=O)N4CCOCC4)c3)n2C)c1C	i	1	2	-21	110	-0.4	106
COc1ccc(C(=O)Nc2nc(C)cc(C)n2)cc1	i	0.98	-4	58	97	.	101
Cc1nn(C)cc1CN(C)C(=O)c1cc(-c2ccccc2)nc2ccc(Br)cc12	i	0.71	-10	.	.	.	99
O=[N+]([O-])c1ccccc1CN1CCN(Cc2c[nH]c3ccccc23)CC1	i	0.81	-12	.	.	.	110
O=C(NNC(=S)Nc1ccc(F)cc1)C1[C@H]2CCCC[C@@H]12 (stereo partly drawn)	i	0.96	.	.	.	.	95
O=C(CSc1ccc2nnc(-c3ccccn3)n2n1)NCc1ccco1	i	0.8	0	.	.	-3.2	85
O=C(/C=C/C=C/c1ccccc1)CC1(O)C(=O)N(CCc2ccccc2)c2ccccc21 (stereo not drawn)	.	.	-1	.	.	-2.2	100
O=C(N/N=C/c1ccncc1)c1ccccc1[N+](=O)[O-]	i	1	-6	15	94	.	111
CCC(SC1=N/C(=C/c2ccccc2)C(=O)N1c1ccccc1)C(=O)Nc1cc(C)on1 (stereo not drawn)	i	0.91	-7	13	77	0.2	110
OC1(C2(O)CC(c3ccccc3)ON2)CCCCC1 (stereo not drawn)	i	0.79	10	29	85	-1.1	54
COC(=O)c1ccccc1-c1ccc(/C=C2\C(=O)N(c3ccccc3)N=C2c2ccccc2)o1	i	1.1	5	.	.	-2.4	92
CCOC(=O)CN1C(=O)N[C@H](c2ccc(Br)cc2)C(C(C)=O)=C1C	i	0.83	-6	5	101	-1.3	105
CCc1ccccc1NC(=O)COc1ccc2oc(-c3ccc(OC)cc3)cc(=O)c2c1	i	1	0	.	.	-1.5	104
CC(C)c1ccc(C(CC(=O)O)NC(=O)c2cccs2)cc1 (stereo not drawn)	i	0.92	-2	.	.	.	96

(cont.)
SMILES	HSV replic up	HSV replic up primary fold	PKD1 inh	Insulin prom inh	Insulin prom inh cell count	GALR2 agonist	RGS16-Gao
O=C(CN1CCCCCC1)Nc1ccccc1Oc1ccccc1	i	1.2	-4	.	.	.	99
COc1ccc(S(=O)(=O)N2CCCOC2CNC(=O)C(=O)NCCCn2ccnc2)cc1OC (stereo not drawn)	i	1.1	2	-56	104	.	95
CCOCCCNC(=O)C(c1ccccc1)N(Cc1cccs1)C(=O)CNC(C)=O (stereo not drawn)	i	1.1	-6	21	144	-0.8	103
O=C(CC1CCS(=O)(=O)C1)Nc1ccc[nH]c1=O (stereo not drawn)	i	0.87	-3	-112	63	-2.3	100
O=C(Nc1cccc(C2OCCCO2)c1)c1cccs1	i	0.8	2	-250	55	-2.0	108
CN1c2ccsc2/C(=N/Nc2ccccc2)CS1(=O)=O	i	1	-4	.	.	.	98
O=C(c1noc2c1CCCC2)N1CCOCC1	i	0.96	-1	.	.	-1.8	104
Cc1ccc2c(c1)C(c1ccccc1)N(C(=O)c1ccc3c(c1)OCO3)CC(=O)N2 (stereo not drawn)	i	0.71	.	.	.	.	104
COc1c(C(C)C)oc2cc3oc(=O)ccc3cc12	i	0.93	0	.	.	.	104
Brc1ccc2[nH]c3nc(SCCN4CCOCC4)nnc3c2c1	i	1.2	5&3	45	60	-0.5	103
COc1ccc(C(C[N+](=O)[O-])c2c(-c3ccccc3)cc3ccccn23)c(OC)c1 (stereo not drawn)	i	0.83	-3	-27	75	-2.3	-398
CCCCNC(=O)C1CCC(CNc2c(N3CCC(C)CC3)c(=O)c2=O)CC1 (stereo not drawn)	i	0.99	.	.	.	.	96

Screening results (PubChem)
